MARV entry inh = qHTS for inhibitors of binding or entry into cells for Marburg Virus; Marburg virus pseudotyped entry inhibition, cell reporter; control for the full effect not named in the record; about a third of the inactives were read at about 46 µM; Potency, µM (highest dose often 37.8 µM), without a hit: at the highest dose activity change, negative = inhibition, most hits filed as inhibitors; 300,000 tested, 1.8% active; AID 540276, 2011; active = well fitted inhibition curve with a large enough effect; inconclusive = small, poorly fitted or top-dose-only effect, or effect the other way; inactive = flat fitted curve, though single readings scatter; tested in HEK293 cells; about a fifth of its hits are not listed in these tables; note: % is set by controls: 0 for no effect and ±100 for the full control effect; luciferase read-out
SARS PLpro yeast = qHTS of Yeast-based Assay for SARS-CoV PLP. S. cerevisiae expressing SARS-CoV PLpro, growth rescue; control for the full effect not named in the record. Potency, µM (doses to about 32.9 µM), inactives show top-dose activity, positive = growth rescue. 330,000 tested, 0.19% active. AID 485353, 2010; note: 0% is about no effect; nearly all actives have a fitted effect of over 55% in size; growth read by luminescence after 48 h
Cruzain noTriton = qHTS Assay for Promiscuous and Specific Inhibitors of Cruzain (without detergent); Cruzipain (Trypanosoma cruzi), P25779; purified cruzain, Z-FR-AMC fluorescence, no detergent; Potency, µM, for inactives: max response, negative = inhibition, hits mostly inhibitors; 200,000 tested, 2.3% active; AID 1476, 2009; active = well fitted curve in the direction sought with a large enough effect; inconclusive = small, poorly fitted or top-dose-only effect, or another doubt; inactive = no such curve, though single readings can be large; an effect the other way counts as inactive or inconclusive;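 note: plate controls were enzyme without inhibitor for no effect and buffer without enzyme for full effect; nearly all actives have a fitted effect of over 40% in size; top concentration of the series not given in the record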
Target sequence (P25779 123-467 limits assumed): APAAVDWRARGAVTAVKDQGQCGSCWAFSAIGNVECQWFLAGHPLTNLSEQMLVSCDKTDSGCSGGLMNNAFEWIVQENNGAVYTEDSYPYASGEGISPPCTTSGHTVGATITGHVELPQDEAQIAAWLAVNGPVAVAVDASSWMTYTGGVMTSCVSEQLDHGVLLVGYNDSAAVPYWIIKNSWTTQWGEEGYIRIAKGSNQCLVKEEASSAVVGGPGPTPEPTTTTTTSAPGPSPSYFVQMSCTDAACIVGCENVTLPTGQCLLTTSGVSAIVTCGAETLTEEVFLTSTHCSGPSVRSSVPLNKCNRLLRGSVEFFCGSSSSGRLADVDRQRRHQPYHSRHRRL
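Purified cruzain at 1.5 nM, pre-incubated 15 min with compound at room temperature in 100 mM sodium acetate pH 5.5, 5 mM DTT, 0.00005% Triton X-100. Reaction started with 2 uM Z-FR-AMC; AMC fluorescence increase over 60 s gives rate.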
Lassa entry inh = qHTS for Inhibitors of binding or entry into cells for Lassa Virus; Lassa virus pseudotype entry inhibition, cell reporter; control for the full effect not named in the record; Potency, µM (titrated, usually from 37.9 µM), inactives show at the highest dose activity change, negative = inhibition, actives largely listed as inhibitors; 300,000 tested, 1.2% active; active means well fitted inhibition curve with a large enough effect; inconclusive means small, poorly fitted or top-dose-only effect, or effect the other way; inactive means flat fitted curve, though single readings scatter; tested in HEK293 cells; note: % is set by controls: 0 for no effect and ±100 for the full control effect; nearly all actives have a fitted effect of over 50% in size; luciferase read-out
RE007 growth inh = qHTS Assay for Inhibitors of the HIV-1 protein Vpr; S. pombe RE007 Vpr strain, BacTiter-Glo ATP luminescence, 24 h; control for the full effect not named in the record; Potency, µM (top dose mostly 92.2 µM), for inactives: at the top dose activity change, negative = less growth; 360,000 tested, 0.21% active; AID 651644, 2012; active = well fitted falling curve with a large enough effect; inconclusive = small, poorly fitted or top-dose-only effect; inactive = no such curve, though single readings can be large or run the other way;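 note: % is set by controls: 0 for no effect and ±100 for the full control effect; nearly all actives have a fitted effect of over 50% in size; the assay follows cell death caused by Vpr and the record does not say whether a fall means rescue or toxicity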
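Fission yeast strain RE007, carrying one chromosomally integrated HIV-1 vpr copy, was seeded at OD 0.01 in PMG+AL medium with 23 nL pinned compound. After 24 h at 30 °C and 99% humidity, viability was read by BacTiter-Glo luminescence.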
Cruzain inh Det = qHTS Assay for Promiscuous and Specific Inhibitors of Cruzain (with detergent). 200,000 tested, 0.43% active. Potency, µM, inactives show max response, negative = inhibition, actives largely listed as inhibitors. purified cruzain, Z-FR-AMC fluorescence, 0.01% Triton; active = well fitted curve in the direction sought with a large enough effect; inconclusive = small, poorly fitted or top-dose-only effect, or another doubt; inactive = no such curve, though single readings can be large; an effect the other way counts as inactive or inconclusive;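 note: plate controls were neutral wells for no effect and buffer without enzyme for full effect; nearly all actives have a fitted effect of over 40% in size; top concentration of the series not given in the record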
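Purified cruzain (1.5 nM final) was preincubated with compounds for 15 min at room temperature in 100 mM sodium acetate pH 5.5, 5 mM DTT, 0.01% Triton X-100. Reaction started with 2 uM Z-FR-AMC; AMC fluorescence change over 60 s gave activity.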
NS1 function inh = qHTS Assay for Inhibitors of Influenza NS1 Protein Function. S. cerevisiae slowed by influenza A NS1, growth recovery by OD600. Potency, µM (titrated, usually from 46.1 µM), for the others: at the highest dose activity, positive = more growth. 270,000 tested, 0.4% active. AID 2326, 2010; note: actives are rising curves; nearly all actives have a fitted effect of over 50% in size
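Read-out: OD600 growth recovery of NS1-expressing budding yeast. Cells grown overnight at 30C in -URA glucose medium, washed, resuspended and diluted 1:100 in 2% galactose assay medium, pH 6.0. Same strain lacking NS1 served as positive control.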
StopGo reporter = High Throughput Screening for Foot and Mouth Disease Virus Antivirals; human cells with a luciferase reporter of 2A StopGo recoding; control for the full effect not named in the record; Potency, µM (doses to about 57.9 µM), for the others: at the top dose signal change, negative = less light; 410,000 tested, 1.2% active; AID 1159524, 2015; active = well fitted falling curve with a large enough effect; inconclusive = small, poorly fitted or top-dose-only effect; inactive = no such curve, though single readings can be large or run the other way; tested in HEK293T cells; note: % is set by controls: 0 for no effect and ±100 for the full control effect; nearly all actives have a fitted effect of over 45% in size; luciferase light after 4 h
Active calls of the source: *; ? = inconclusive; · = not tested or not shown; & = joins results of further samples; [ ] = another dose, or the depositor's remark. Unless noted, calls come from the whole dose curve; as a rule, active means well fitted rising curve with a large enough effect; inconclusive means small, poorly fitted or top-dose-only effect; inactive means no such curve, though single readings can be large or run the other way. Potency is the fitted concentration of half-maximal effect.

SMILES	MARV entry inh	SARS PLpro yeast	Cruzain noTriton	Lassa entry inh	RE007 growth inh	Cruzain inh Det	NS1 function inh	StopGo reporter
CCOc1cccc(CNCCSc2nnnn2C)c1	-11%	2%	·	-16%	1%	·	14%	4%
c1ccc(CSC2=NNC(c3ccccn3)S2)cc1 (stereo not given)	?	?	·	?	26%	·	13%	-9%
COc1ccccc1-c1cc(C(=O)Nc2cccnc2)no1	?	-14%	-5%	?	-14%	-2.9%	-38%	26%
Cc1ccccc1-c1cc2nc(C)c(C)c(=O)n2[nH]1	-11%	0%	·	8%	1%	·	4%	33%[activator]
COc1ccc(-c2nc3c4ccccc4n(CC(=O)N4CCN(c5ccc(F)cc5)CC4)c(=O)n3n2)cc1	·	·	12%	-23%[46.1 µM]	·	6.8%	·	-16%
O=C(Nc1ccccc1C(F)(F)F)c1ncn[nH]1	12%[46.1 µM]	4%	·	2%[46.1 µM]	-1%	·	-2%	17%
CCCC(=N)C1=C(O)CC(CC(C)SCC)CC1=O (stereo not given)	29%	-37%	-1%	-2%	4%	1.0%	-100%	-1%
O=[N+]([O-])c1cc(-c2ncccn2)cs1	3%	-20%	1%	15%[46.1 µM]	-22%	-1.9%	-12%	-6%
O=C(Nc1c[nH]c(=O)[nH]c1=O)c1ccccc1Cl	21%	-1%	·	-11%	-14%	·	1%	4%
CCCC(=O)Nc1cccc(NC(=O)c2ccc(C)c([N+](=O)[O-])c2)c1	-2%	5%	9%	-1%	-5%	1.2%	-6%	-5%
Fc1ccc(N2CCN(/C=C/c3nnnn3-c3ccccc3)CC2)cc1	-7%	18%	14%	?	-4%	0.4%	14%	-13%
COc1cc(CCC(=O)OCC(=O)Nc2cccc(S(=O)(=O)N(C)C)c2)cc(OC)c1OC	-1%	7%	3%	-4%	13%	-1.1%	-22%	-24%
Cc1cccc(-n2ncc3c2CCCC3NC(=O)C2(C(N)=O)CC2)c1C (stereo not given)	?	5%	·	?	18%	·	7%	?
Cc1ccc(S(=O)(=O)c2cn(Cc3ccccc3Cl)c3ccc(F)cc3c2=O)cc1	-2%[46.1 µM]	·	-8%	-25%[46.1 µM]	·	-2.7%	·	10%
CC(=O)N1CCc2cc(CNS(=O)(=O)c3ccc(F)cc3)ccc21	·	·	11%	18%[46.1 µM]	·	-1.1%	·	18%
CCOC(=O)CSc1cc(C(F)(F)F)nc(-c2ccccn2)n1	?	1%	-16%	-3%	5%	7.8%	-13%	2%
COc1ccc2nc(SCC(C)=O)c(C#N)cc2c1	?	9%	1%	5.6µM*	6%	-6.2%	2%	-35%
COCCN(C(=O)Cc1cccs1)c1nnc(-c2cccnc2)s1	15%	-3%	-8%	-4%	20%	-5.8%	-9%	1%
Cc1oc(C(C)(C)C)cc1C(=O)N1CCN(C(c2ccccc2)c2ccccc2)CC1	?	-1%	·	?	-13%	·	0%	?
COc1cccc(-c2nc(CS(=O)(=O)CC(=O)NC3CC3)c(C)o2)c1	·	-4%	·	·	-3%	·	3%	-4%
O=S(=O)(Cc1ccc(Cl)cc1)N1CCCCCC1	11%[46.1 µM]	·	·	0%[46.1 µM]	0%	·	4%	11%
O=C(O)CCCC(=O)N1CCN(c2cccc(Cl)c2)CC1	-3%	2%	13%	5%	-5%	-2.0%	6%	0%
Cc1cccc(CC(c2cccc(C)c2)N(C)C)c1 (stereo not given)	?	·	·	9%[46.1 µM]	-1%	·	·	-16%
Cc1ccc(NNC(=O)c2cc(C(C)(C)C)nn2Cc2ccccc2)cc1	-7%	-3%	·	?	5%	·	-2%	-9%
CCc1nc2ccc(C(=O)NCc3ccc(C)o3)cc2nc1CC	-22%[46.1 µM]	-6%	·	8%[46.1 µM]	-4%	·	-13%	4%

(list continues)
SMILES	MARV entry inh	SARS PLpro yeast	Cruzain noTriton	Lassa entry inh	RE007 growth inh	Cruzain inh Det	NS1 function inh	StopGo reporter
COC(=O)c1sccc1NC(=O)CSCCc1ccccn1	3%[46.1 µM]	-2%	·	16%[46.1 µM]	-20%	·	·	-6%
COc1ccc(C2CC(c3ccccc3)=NN2C(=O)COC(=O)c2nc3nc(C)cc(C)n3n2)cc1 (stereo not given)	23%[46.1 µM]	3%	·	-7%	9%	·	22%	4%
CC1CCCCN1C(=O)COC(=O)c1ccc2c(c1)C(=O)N(Cc1ccco1)C2=O (stereo not given)	29%	1%	·	22%	-9%	·	·	-25%
C/C(Cc1ccccc1)=N\NC(=O)CNC(=O)Cc1ccccc1	15%	6%	·	-1%	10%	·	2%	8%
CC(=O)Nc1ccc(C(=O)OCC(=O)N2CCCC2)cc1	-1%[46.1 µM]	1%	·	8%	19%	·	-11%	9%
OCCNc1nc(Nc2ccccc2)nc(Nc2ccccc2)n1	?	2%	-10%	-7%	3%	-5.7%	1%	-10%
O=C(Cn1nnc(-c2ccccc2)n1)N/N=C/c1ccc(-c2ccc(Cl)cc2)o1	?	5%	?	3%	4%	-22%	13%	-3%
COc1ccc2c(c1)CCC(C)N2S(=O)(=O)c1ccc(C2CNC(=O)C2)cc1 (stereo not given)	-6%	3%	?	-8%	6%	-2.1%	-5%	·
COc1ccc(-c2csc3ncn(-c4ccc(C)cc4)c(=O)c23)cc1OC	?	0%	·	?	7%	·	1%	-13%
Cc1ccnc(SCc2cn3c(C)cccc3n2)n1	7%[46.1 µM]	1%	·	3%	-2%	·	2%	24%
CCCN(CCC)C(=O)Cn1c(=O)n(-c2ccc(C)cc2)c(=O)c2ccc(C(=O)NCc3ccccc3Cl)cc21	23%[46.1 µM]	·	5%	-4%[46.1 µM]	·	-3.9%	·	68%[activator]
O=C(NCC1COc2ccccc2O1)c1c[nH]c2ccc(S(=O)(=O)N3CCOCC3)cc2c1=O (stereo not given)	-18%	-7%	9%	?	5%	-0.5%	8%	-14%
CCN(CC)CCNC1=NCCn2c1cc1cc(OC)ccc12	?	-6%	-10%	8.2µM*	-2%	-8.9%	3%	-6%
COc1ccc2cc(/C=N/NC(=O)c3c(Cl)cnn3C)c(Cl)nc2c1	0%	-4%	-17%	-4%	1%	-4.0%	-8%	-14%
S=c1[nH]c2ccccc2n1CCc1ccncc1	3%	·	·	4%	4%	·	·	0%
NC(=S)NN=C1c2cc(Cl)ccc2-c2c1cc(Cl)cc2[N+](=O)[O-]	-24%	·	·	0%	0%	·	·	20µM*
N/C(COc1ccc(Cl)cc1)=N\NS(=O)(=O)c1ccccc1	21%	-1%	-2%	-1%	1%	-0.1%	8%	10%
C=CCOc1ccc(/C=N/O)cc1Cl	?	-9%	-6%	13%	-7%	-4.4%	-1%	-12%
COc1ccc(NC(=O)/C=C/c2ccc(C)o2)cc1S(=O)(=O)N1CCOCC1	?	5%	6%	24%	-5%	-11%	7%	0%
CCOC(=O)COc1ccc(S(=O)(=O)NC2CC2)cc1	4%	-2%	·	3%	1%	·	10%	12%
Cn1c(SCC(=O)NC2CCCCC2)nnc1-c1ccccc1O	·	-1%	·	·	-5%	·	5%	0%
Cc1cc(C)n2nc(SC(C)C(=O)N3CC(C)OC(C)C3)nc2n1 (stereo not given)	-2%	-2%	·	7%	1%	·	·	-10%
CCCn1c(SCC(=O)N2CCCC2=O)nc2ccccc2c1=O	-3%	-2%	·	12%	3%	·	·	-23%
Cc1ccc(S(=O)(=O)ON2C(=O)c3cccc4cccc(c34)C2=O)cc1	3%	-18%	5%	-16%	3%	-11%	14%	3%
Cc1ccc(C(CNS(=O)(=O)c2ccccc2)N2CCN(C)CC2)cc1 (stereo not given)	1%	-2%	·	21%	-11%	·	·	18%

(next part)
SMILES	MARV entry inh	SARS PLpro yeast	Cruzain noTriton	Lassa entry inh	RE007 growth inh	Cruzain inh Det	NS1 function inh	StopGo reporter
Nc1nc(NCc2ccccc2)nc(Nc2ccc(F)cc2)c1[N+](=O)[O-]	12%	0%	7.9µM*	8%	10%	-4.4%	-1%	0%
Cc1ccc(-c2ccc(/C=N/N3C(=O)C4C5C=CC(C6CC56)C4C3=O)o2)c([N+](=O)[O-])c1 (stereo not given)	-1%	3%	?	6%	-19%	-4.2%	-54%	?
Cc1ccnn1CC(=O)N/N=C/c1cn[nH]c1-c1ccccc1	?	0%	·	28%	-8%	·	-3%	3%
Cc1ccc(NC(=O)CN2CC(C)SC2=NC2CCCCC2)cc1 (stereo not given)	?	-3%	-16%	?	6%&5%	6.1%	-11%	-4%&-18%
COc1cc(C2NC(=O)NC(C)=C2C(=O)OC2CCC(C)CC2)ccc1O (stereo not given)	·	6%	·	·	-12%	·	13%	-24%
CC1NC(=O)NC1CCCCCC(=O)Nc1ccc(F)cc1 (stereo not given)	?	-3%	·	1%	-4%	·	·	-3%
CCOc1ccc(NC(=O)CCNS(=O)(=O)c2cccs2)cc1	?	11%	-7%&4%	3%[46.1 µM]	-1%	-2.0%&6.8%	8%	31%[activator]
CN(C)CCNC(=O)c1c(O)c2c([nH]c1=O)CCCC2	9%	10%	10%	-13%	2%	-0.8%	2%	12%
COCCOc1nc2c(c(=O)n(C)c(=O)n2C)n1CCc1ccccc1	1%	-1%	-4%	0%	-3%	0.3%	-4%	0%
Cc1cn(CCC(=O)Nc2ccc(N3CCOCC3)cc2)c2ccccc12	·	-2%	·	·	-17%	·	-6%	51%[activator]
CCOC(=O)C(Cc1ccnnc1)=NO	?	·	·	4%[46.1 µM]	97%	·	·	3%
COn1c(=O)c(=O)n(O)c2ccccc21	0%	5%	-5%	8%	-1%	-1.9%	13%	7%
CC(=O)c1ccc(NC(=O)Cn2ncc3c(C)n(Cc4ccc(F)cc4)c(C)c3c2=O)cc1	-28%[46.1 µM]	·	-6%	8%[46.1 µM]	·	-4.2%	·	-14%
CCC(=O)c1ccc(Oc2nc3c(c(=O)n(C)c(=O)n3C)n2CC)cc1	22%[46.1 µM]	2%	·	-5%[46.1 µM]	6%	·	7%	?
